Compound activity deposited in PubChem by several laboratories.
Ins promoter up: MIN6 insulin promoter up-regulation; MIN6 insulin promoter-GFP reporter, high-content imaging; stronger effect = higher value; z-score at 5 µM; 0.3% of 190,000 active;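 active = z-score above 3 at 5 µM with at least 500 cells counted in the well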
SV40 large T antigen: TAg ATPase/helicase activity blockers – biochemical (AID 1903). SV40 large T antigen ATPase/helicase inhibition assay; higher % means a stronger effect. inhibition, % at 20 µM; hits with a dose series show IC50 in µM. 0.39% of 310,000 active; in the data active = a potency from the dose series; note: strong numbers were not always called active
Salmonella PhoP GFP: PhoP-dependent GFP reporter repression – Salmonella Typhimurium, primary screen (AID 1863); S. Typhimurium PhoP-regulated promoter GFP reporter, 4 h; higher % means a stronger effect; 0.16% of 300,000 active; inhibition, % at 50 µM, or IC50 in µM where a hit was titrated;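 active = inhibition over 29.93%, a cutoff 3 SD above the screen mean, later confirmed by dose response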;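 note: 0% = low Mg2+ inducing control and 100% = high Mg2+ repressing control; strong numbers were not always called active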
ER stress rescue: protection against thapsigargin-triggered cell killing – 384-well, CSM14.1, ATP luminescence, primary screen (AID 1222); CSM14.1 thapsigargin-induced death rescue, ATP luminescence; higher % means a stronger effect; one-dose cellular ATP content (survival), % at 20 µM; EC50 in µM for titrated hits; 190,000 tested, under 10 active;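 active = EC50 below 50 µM in the dose-response confirmation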;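 note: death triggered by thapsigargin at about 15 µM added after 2 h compound pretreatment; cell ATP read after overnight thapsigargin exposure of roughly 18 to 22 hours; normalized against plate controls of thapsigargin alone and 5% DMSO vehicle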
RSV antiviral HEp-2: inhibition of RSV-induced cytopathic effect – HEp-2 cells, primary 10 µM value included (AID 2391); HEp-2 cells, RSV-induced CPE inhibition; higher % means a stronger effect; one-dose CPE inhibition, % at 10 µM; IC50 in µM for titrated hits; 0.13% of 310,000 active; in the data active = a potency from the dose series; note: strong numbers were not always called active
West Nile antiviral: inhibition of WNV-induced cytopathic effect – cell-based, CPE readout (AID 1621); one-dose CPE inhibition, % at 10 µM; IC50 in µM for titrated hits; West Nile virus-infected cells, CPE inhibition; higher % means a stronger effect; 0.02% of 290,000 active; in the data active = a potency from the dose series; note: strong numbers were not always called active
TNAP activators: stimulation of alkaline phosphatase TNAP activity – biochemical, luminescent, no phosphate acceptor, uHTS, primary screen (AID 1001); 0.03% of 200,000 active; purified TNAP, luminescent activation assay, no phosphate acceptor; higher activation fold means a stronger effect; activation fold at 20 µM, or EC50 in µM where a hit was titrated; in the data active = activation fold from about 3, or a potency from the dose series; inactive = the rest, 99 in 100 with activation fold below about 1.6; note: many of its hits are not listed in these tables
Ins promoter up cell count: further read-out of Ins promoter up, marked with its call; cell count; measured here: cytotoxicity, nuclei count;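 total cells summed across four imaged fields per well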
The depositor's hits bear a star; . = no result given. Some of the compounds tested, so the mix of outcomes need not match the whole.

Start of the listing, in advance:
Assay codes – A = Ins promoter up; B = Ins promoter up cell count; C = SV40 large T antigen; D = Salmonella PhoP GFP; E = ER stress rescue; F = RSV antiviral HEp-2; G = West Nile antiviral; H = TNAP activators
#1 Cc1ccc(NC(=O)CN(Cc2ccccc2)S(C)(=O)=O)cc1C
  A: -0.02; B: 1400; C: 5.9%; D: 0.1%; E: -0.6%; F: 3.0%; G: -0.2%; H: 1.1
#2 O=S1(=O)CCN2C=Nc3sc4c(c3C2=N1)CCCC4
  A: 2.19; B: 1430; C: -1.2%; D: 4.1%; E: -0.9%; F: 1.7%; G: -0.1%; H: 1
#3 CC(C)C1=Nc2cccc3cccc(c23)N1
  A: .; B: .; C: 31.8%; D: 23.6%; E: -0.9%; F: 2.5%; G: .; H: 1
#4 CCOC(=O)c1[nH]c(C)c(CN(CCc2ccccc2)C(=O)CCC(=O)O)c1C
  A: .; B: .; C: 1.0%; D: -1.7%; E: -0.4%; F: 0.6%; G: .; H: 1.1
#5 O=C(Nc1ccccn1)C(NS(=O)(=O)c1cccc2nsnc12)c1ccccc1 (stereo not given)
  A: .; B: .; C: 3.6%; D: -0.3%; E: -0.5%; F: 2.3%; G: -0.7%; H: 1
#6 CCOC(=O)C1=C(c2ccccc2)NC(=S)NC1c1cc([N+](=O)[O-])ccc1OC (stereo not given)
  A: -0.72; B: 1486; C: -4.1%; D: -7.6%; E: 0.4%; F: 40.4%; G: 0.1%; H: 1.1
#7 CSc1nsc(SC)c1NC(=O)OCC1CCCO1 (stereo not given)
  A: -0.4; B: 1637; C: 12.8%; D: 4.1%; E: -1.2%; F: 0.1%; G: -0.1%; H: 1.1
#8 O=C(N/N=C/c1cccc(Oc2ccc([N+](=O)[O-])cc2[N+](=O)[O-])c1)c1cncc(Br)c1
  A: 1.56; B: 1268; C: 5.9%; D: -3.2%; E: 2.0%; F: 5.6%; G: -0.3%; H: 1
#9 CCOc1ccccc1NC(=O)Nc1c(C)n(-c2ccccc2)c(=O)n1C
  A: .; B: .; C: 9.9%; D: -7.2%; E: -2.4%; F: 0.2%; G: 0.7%; H: 1.1

The whole of this part, repeating the preview:
Assay codes – A = Ins promoter up; B = Ins promoter up cell count; C = SV40 large T antigen; D = Salmonella PhoP GFP; E = ER stress rescue; F = RSV antiviral HEp-2; G = West Nile antiviral; H = TNAP activators
#1 Cc1ccc(NC(=O)CN(Cc2ccccc2)S(C)(=O)=O)cc1C
  A: -0.02; B: 1400; C: 5.9%; D: 0.1%; E: -0.6%; F: 3.0%; G: -0.2%; H: 1.1
#2 O=S1(=O)CCN2C=Nc3sc4c(c3C2=N1)CCCC4
  A: 2.19; B: 1430; C: -1.2%; D: 4.1%; E: -0.9%; F: 1.7%; G: -0.1%; H: 1
#3 CC(C)C1=Nc2cccc3cccc(c23)N1
  A: .; B: .; C: 31.8%; D: 23.6%; E: -0.9%; F: 2.5%; G: .; H: 1
#4 CCOC(=O)c1[nH]c(C)c(CN(CCc2ccccc2)C(=O)CCC(=O)O)c1C
  A: .; B: .; C: 1.0%; D: -1.7%; E: -0.4%; F: 0.6%; G: .; H: 1.1
#5 O=C(Nc1ccccn1)C(NS(=O)(=O)c1cccc2nsnc12)c1ccccc1 (stereo not given)
  A: .; B: .; C: 3.6%; D: -0.3%; E: -0.5%; F: 2.3%; G: -0.7%; H: 1
#6 CCOC(=O)C1=C(c2ccccc2)NC(=S)NC1c1cc([N+](=O)[O-])ccc1OC (stereo not given)
  A: -0.72; B: 1486; C: -4.1%; D: -7.6%; E: 0.4%; F: 40.4%; G: 0.1%; H: 1.1
#7 CSc1nsc(SC)c1NC(=O)OCC1CCCO1 (stereo not given)
  A: -0.4; B: 1637; C: 12.8%; D: 4.1%; E: -1.2%; F: 0.1%; G: -0.1%; H: 1.1
#8 O=C(N/N=C/c1cccc(Oc2ccc([N+](=O)[O-])cc2[N+](=O)[O-])c1)c1cncc(Br)c1
  A: 1.56; B: 1268; C: 5.9%; D: -3.2%; E: 2.0%; F: 5.6%; G: -0.3%; H: 1
#9 CCOc1ccccc1NC(=O)Nc1c(C)n(-c2ccccc2)c(=O)n1C
  A: .; B: .; C: 9.9%; D: -7.2%; E: -2.4%; F: 0.2%; G: 0.7%; H: 1.1
#10 CC(C)c1ccc(-c2nn(-c3ccccc3)cc2C2C(C#N)=C(N)OC3=C2C(=O)CC(C)(C)C3)cc1 (stereo not given)
  A: .; B: .; C: -0.4%; D: 23.5%; E: 18.0%; F: 21.9%; G: 1.3%; H: 1.1
#11 CCc1ccc(C(=O)c2oc3nc(C)cc(C)c3c2N)cc1
  A: -0.03; B: 1228; C: 14.6%; D: -8.6%; E: -0.9%; F: 4.7%; G: -0.2%; H: 1.1
#12 COc1ccc(C(=O)Nc2cc(OCc3ccccc3)c(Cl)cc2Cl)cc1
  A: .; B: .; C: 15.7%; D: -3.2%; E: 0.3%; F: 1.3%; G: 0.0%; H: 1.1
#13 COc1ccc(CCNC(=O)CCCCCN2C(=O)c3ccccc3C2=O)cc1
  A: .; B: .; C: 6.2%; D: -11.4%; E: 0.0%; F: 0.5%; G: 0.4%; H: 1
#14 O=C(Oc1c(Br)cc(C(=S)N2CCOCC2)cc1Br)c1ccc(Cl)cc1
  A: -0.26; B: 1143; C: 10.3%; D: -0.9%; E: -2.3%; F: 3.2%; G: .; H: 1.1
#15 COc1ccc(C2=NN(C)C(=NCc3ccccc3)SC2)cc1
  A: -0.89; B: 1269; C: -5.8%; D: -0.1%; E: -0.8%; F: 0.0%; G: -1.1%; H: 1.1
#16 Cc1[nH]nc(-c2ccc(OCc3cnn(-c4ccccc4)c3)cc2O)c1Oc1ccc(F)cc1
  A: -0.03; B: 1500; C: -4.7%; D: -9.3%; E: -0.8%; F: 3.8%; G: 0.4%; H: 1.1
